Autofluor counter: compound fluorescence in toxin protease inhibitor counterscreen; compound autofluorescence counterscreen, microsphere flow cytometry; stronger effect = higher value; AID 624483; 3.1% of 360,000 active; fluorescence intensity (test concentration not listed);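 active means at least 3 SD above the mean of all compounds, about 16000 in these data; inconclusive means too few beads counted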;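 further: 100 nL of 1 mM stock went into each well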
BJeLR viability: kills HRASV12-expressing BJeLR cells. BJeLR (HRASV12) viability, CellTiter-Glo ATP luminescence, 48 h; reference of the scale not given here. inhibition, % (no concentration beside the values). 0.17% of 300,000 active. AID 1554;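 active means replicate mean above 50%; inconclusive means above 50% but judged a plate artefact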;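 further: 50 nL library stock added to about 25 µL; numbers are from one replicate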
Mtb hypoxia inh: Mtb hypoxia fluorescent reporter inhibition | M. tuberculosis hypoxia-regulated fluorescent reporter, fluorescence | fluorescence inhibition, % (test concentration not listed) | 0.1% of 300,000 active;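 active means 35 to 45% if threefold the growth effect, above 45% if 1.5-fold the growth effect; inactive means the rest, general growth blockers included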;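 further: wells of about 50 µL received 100 nL stock; 0% = vehicle wells and 100% = reference inhibitor wells; whole bacteria with a GFP reporter of the hypoxia response; strong numbers were not always called active; many hits fall short of the cut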
PrP 5UTR inh: suppresses PrP 5' UTR mRNA reporter expression; cell-based PrP 5' UTR mRNA reporter, plate reader; inhibition, % (concentration not given with the values); 0.35% of 340,000 active;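 active means every replicate at 50% or more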;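 further: 0 = median of the neutral control wells; tested in H4 reporter cells; numbers are from one replicate; inactives centre near -14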
ugtP null kill: kills S. aureus RN4220 lacking UgtP. S. aureus RN4220 ugtP deletion, OD600 growth, 16 h; some inactives read as strong as hits. growth inhibition, % (test concentration not listed). 0.54% of 330,000 active;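 active means z-score under -3 and OD600 up to 0.15 on both plates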;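 further: plate controls were untreated wells for no effect and antibiotic for full effect; wells of about 80 µL received 100 nL stock; the first replicate is given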
RN4220 kill: S. aureus RN4220 growth inhibition; 0.33% of 330,000 active; OD600, 16 h; AID 1259311; inhibition, % (concentration not given with the values);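 active means z-score of -3 or lower and OD600 up to 0.18 on both plates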;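 further: plate controls were untreated cells for no effect and reference antibiotic for full effect; stock transfer was 100 nL into about 80 µL; one replicate is shown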
Mtb hypoxia inh growth: second read-out of Mtb hypoxia inh, no call of its own (marks repeat the call); growth inhibition, %; measured here: M. tuberculosis growth (absorbance);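 0% = vehicle and 100% = reference antibiotic; read after six days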
An asterisk follows results filed as active; ? = inconclusive; . = not tested or not shown.

entry	molecule	Autofluor counter	BJeLR viability	Mtb hypoxia inh	Mtb hypoxia inh growth	PrP 5UTR inh	ugtP null kill	RN4220 kill
1	O=C(CN1C(=O)CCSc2ccccc21)Nc1cccc(F)c1	9804	-4	3	4	-58	0	6.1
2	COc1ccc(/C=N/NC(=O)c2cccc(NC(=O)c3ccccc3Cl)c2)cc1	6078	29	.	.	-39	.	.
3	CN(C)C(=O)COC(=O)c1cccc(S(=O)(=O)N2CC3(C)CC2CC(C)(C)C3)c1 (stereo not given)	3066	.	6	1	-22	-1	6.7
4	COc1ccc(CCNC(=O)CN2CCC(n3nnc4cc(F)ccc43)CC2)cc1OC	5936	.	9	15	-20	0	5.1
5	Cc1onc(-c2ccccc2)c1C(=O)NN1CCOCC1	4109	.	-5	-8	-16	7	4.7
6	O=C(NCCc1ccccn1)c1c(-c2ccsc2)sc2ccccc12	2919	.	-2	-2	-3	-12	0.4
7	CCn1cc(S(=O)(=O)NCc2ccc(OC)cc2)cn1	4549	6	2	-2	-4	17	7.7
8	CCCn1c(=O)c(C(=O)NN=Cc2ccccc2F)c(O)c2ccccc21	.	.	3	2	.	26	32
9	CC(OC(=O)CC1CCCC1)C(=O)Nc1ccc(S(N)(=O)=O)cc1 (stereo not given)	5071	0	6	11	-14	6	4.3
10	CCCc1nnc(SCc2ccc(C(=O)OC)o2)n1N	3255	-5	2	6	-13	-8	-8.0
11	CCc1nnc(NC(=O)NC(C)(C)C)s1	3042	-14	4	11	-1	8	3.9
12	CCOC(=O)N1CCN(S(=O)(=O)c2ccc(C(=O)N(CCN(CC)CC)c3nc4c(C)cccc4s3)cc2)CC1	6239	-3	6	13	-7	3	0.1
13	O=c1c2ccccc2sn1-c1ccc(S(=O)(=O)N2CCCC2)cc1	4472	-4	3	-2	-48	-5	-2.7
14	CCCCNc1c(-c2ccc(Sc3ccc(OC)cc3)cc2)nc2cc(C)ccn12	3632	.	4	-2	-54	-2	-17
15	CCOc1ccc(NC(=O)Cn2nnc(C(=O)NCc3ccc(OC)cc3)c2N)cc1	5569	-16	2	-6	-24	4	3.0
16	Cc1ccc(C(=O)CCC(=O)N2CCN(C(=O)c3ccco3)CC2)cc1	3312	2	13	4	0	1	2.4
17	Cc1sc2ncnc(N(C)CCc3ccccn3)c2c1C	3556	-8	11	5	1	4	3.7
18	COc1ccc(-c2nnc3n2N=C(C)CS3)cc1OC	5697	7	6	3	-31	4	3.6
19	O=C(/C=C/c1ccc(F)cc1)NCc1ccco1	2606	-2	.	.	-57	-2	1.2
20	CCn1c(C(O)c2ccc(C)cc2)nc2ccccc21 (stereo not given)	2447	5	.	.	-20	-1	-1.9
21	COc1ccc(/C=N/NC(=O)C2CC2)c(OC)c1OC	5738	2	.	.	-8	.	.
22	CC(NS(=O)(=O)c1ccc(F)cc1)C(c1cccs1)N1CCOCC1 (stereo not given)	4364	10	2	2	13	0	2.7
23	CCCCCN(C(=O)CCC(=O)OC(C)C(=O)c1ccc(CC)cc1)c1c(N)n(CCCC)c(=O)[nH]c1=O (stereo not given)	4085	.	15	5	-18	-3	-0.4
24	O=c1[nH]c2c(oc3ccccc32)c(=O)n1Cc1ccccc1	3515	1	-4	-17	-27	-10	1.8
25	Cn1cc(S(=O)(=O)N2CCOCC2)cc1C(=O)NCc1ccc(Cl)cc1	5919	-5	-3	-2	-6	-2	0.3
26	O=C(CSc1nnc(Cn2cnc3ccccc32)o1)c1ccccc1	4017	-11	-2	-1	-26	1	2.4
27	CC(C)CC(=O)NC1(C(F)(F)F)NC(=O)N(c2ccccc2)C1=O (stereo not given)	3870	4	-18	-5	-30	4	3.3
28	C[C@@H]1CN(C(=O)c2ccc(OC3CCN(S(=O)(=O)N(C)C)CC3)cc2)C[C@H](C)O1	4634	-8	6	5	-10	7	3.4
29	O=c1c(-c2ccnn2-c2ccccc2F)cnc2n1CCS2	4478	-3	.	.	-12	-2	1.6
30	Cc1cccc(NC(=O)c2sc3nc4c(c(-c5ccco5)c3c2N)CCC4)c1	3678	7	.	.	7	-12	-3.5
31	COc1ccc([N+](=O)[O-])cc1NC(=O)CS(=O)(=O)c1ccc(C)cc1	3041	-2	11	-8	-8	1	15
32	COc1ccc(CC(=O)Oc2ccc(C(C)C)cc2)cc1S(=O)(=O)N1CCOCC1	6478	-5	1	1	-2	5	3.5
33	COc1ccc([N+](=O)[O-])cc1NC(=O)Cn1ccc(C(F)(F)F)n1	3302	-19	6	2	-20	21	6.1
34	Cc1ccc(CCNC(=O)C2CC(c3ccccc3C(F)(F)F)=NO2)cc1 (stereo not given)	4195	7	22	4	-3	5	4.8
35	COCc1nnc(NC(=O)c2ccc(S(=O)(=O)N(C)c3ccccc3)cc2)o1	5656	-10	3	7	-12	5	17
36	O=C(Nc1ccc2nc3n(c(=O)c2c1)CCCC3)c1cncc(Br)c1	4855	11	.	.	-24	7	2.3
37	CCCC[C@@H]1CCCO[C@@](C(=O)NCc2ccc(C)o2)(C(F)(F)F)C1	2961	5	15	6	-19	-3	-10
38	COc1cccc(/C=C/C(=O)OCC(=O)Nc2ccc(S(=O)(=O)N3CCCC3)cc2)c1	7425	-9	10	3	-27	5	12
39	O=C(/C=C/c1cccs1)Nc1ccc(S(=O)(=O)Nc2ncccn2)cc1	4678	-2	15	9	-14	1	1.4
40	C#CCOCCOCCOCCNc1nc(N2CCN(C(=O)C(CCCCN)n3cc(CCCC)nn3)CC2)nc(N2CCN(C(=O)C(C(C)O)n3cc(CCCCN)nn3)CC2)n1 (stereo not given)	.	.	7	3	.	-3	4.0

Reformatted: entries from further up.
12	CCOC(=O)N1CCN(S(=O)(=O)c2ccc(C(=O)N(CCN(CC)CC)c3nc4c(C)cccc4s3)cc2)CC1
  Autofluor counter: 6239
  BJeLR viability: -3
  Mtb hypoxia inh: 6
  Mtb hypoxia inh growth: 13
  PrP 5UTR inh: -7
  ugtP null kill: 3
  RN4220 kill: 0.1

24	O=c1[nH]c2c(oc3ccccc32)c(=O)n1Cc1ccccc1
  Autofluor counter: 3515
  BJeLR viability: 1
  Mtb hypoxia inh: -4
  Mtb hypoxia inh growth: -17
  PrP 5UTR inh: -27
  ugtP null kill: -10
  RN4220 kill: 1.8

Following part:
entry	molecule	Autofluor counter	BJeLR viability	Mtb hypoxia inh	Mtb hypoxia inh growth	PrP 5UTR inh	ugtP null kill	RN4220 kill
41	CCOC(=O)Cn1nnnc1CN(Cc1ccc(OC)cc1)Cc1cc2cc(C)cc(C)c2[nH]c1=O	6105	-1	-7	-2	-19	-8	-0.3
42	COc1cccc(CN2CCN(CC(=O)NCCc3ccccc3)CC2)c1	3385	-3	-5	-7	6	1	0.2
43	CCOC(=O)C[C@H]1c2ccc(C(F)(F)F)cc2S(=O)(=O)N1Cc1ccccc1	4300	3	.	.	-35	.	.
44	CCOc1ccc(S(=O)(=O)NCCC(=O)NCCOc2ccccc2)cc1	?	9	7	1	-6	9	-0.8
45	CCN(CC)N=Nc1ccc(S(=O)(=O)Nc2c(C)n(C)n(-c3ccccc3)c2=O)cc1	3616	17	-10	17	-18	6	1.6
46	CCNC(=O)CC1C(=O)N(c2ccc(OC)cc2)C(=S)N1CCc1ccncc1 (stereo not given)	4308	-5	-2	-1	-19	5	4.4
47	Cc1nc2ccccc2c(=O)n1-n1cnnc1	8003	2	3	7	-8	4	8.0
48	CCC(C)(C)NC(=O)CN(C(=O)C(=O)Nc1ccc2c(c1)OCCO2)C(C)(C)CC	4166	-7	4	0	-37	2	4.8
49	Cc1csc(NC(=O)CSCC(=O)Nc2ccccc2)n1	3460	1	.	.	-24	1	-3.5
50	O=C(CCNC(=O)C1CCN(S(=O)(=O)c2ccc(F)cc2)CC1)NCc1ccc(F)cc1	5180	14	13	4	-10	2	4.3
51	CCn1c(C)nc2cc(C(=O)NNC(=S)Nc3ccccc3OC)ccc21	.	-9	-4	5	.	10	0.8
52	CC(C)c1ccc(NC2CCCN(C(=O)CN3C(=O)CSC3=O)C2)cc1 (stereo not given)	5115	-1	7	-3	0	6	3.4
53	CCOC(=O)c1sc(=S)n(-c2ccc3c(c2)OCO3)c1N	7754	0	-2	1	1	-13	2.6
54	Cc1cc(C)cc(NS(=O)(=O)c2ccc(NC(=O)c3ccccc3C(=O)O)cc2)c1	3240	6	2	0	.	2	3.4
55	CCOc1ccc(NS(=O)(=O)c2ccc3[nH]cc(C(=O)NC(C)CC)c(=O)c3c2)cc1 (stereo not given)	3020	17	-3	-2	-4	4	0.5
56	COc1ccc2nc(C(F)(F)C(F)(F)F)c(C#N)c(N)c2c1	4529	15	6	12	-6	-2	-11
57	COC(=O)C[C@]1(C(=O)OC)CN(C#N)N(c2ccc(Cl)cc2)C12c1ccccc1-c1ccccc12	3530	67*	14	7	-1	79	44
58	CNC(=O)COC(=O)CNC(=O)c1cc(Cl)cc([N+](=O)[O-])c1	3230	-8	-2	2	47	-16	-2.0
59	O=C(CNC(=O)c1ccco1)NCCCc1ccccc1	4741	-7	7	7	0	4	1.1
60	O=[N+]([O-])c1cccc(S(=O)(=O)/N=C(/Nc2ccccc2)c2ccccc2)c1	3790	.	6	5	-18	1	4.4
61	CCOCCCNS(=O)(=O)c1ccc(NC(=O)Cc2c(F)cccc2Cl)cc1	4997	-8	8	4	-18	9	14
62	CC(CSc1n[nH]c(=S)s1)c1ccccc1 (stereo not given)	2997	.	11	5	-15	-5	12
63	CC(=O)c1ccc(NC2OC(C)C(O)C(O)C2O)cc1 (stereo not given)	4505	0	-1	3	-14	-2	7.8
64	Cc1nn(CC(O)COc2ccc3c(c2)CCC3)c(C)c1Br (stereo not given)	9305	-7	7	-2	-20	-10	8.1
65	COCC(=O)N1CCC(Oc2ccc(C(=O)N3C[C@@H](C)O[C@@H](C)C3)cc2)CC1	5001	9	5	6	16	6	3.3
66	Cc1c(C(=O)O)sc2nc(/C=C/c3ccccc3OC(F)F)[nH]c(=O)c12	3113	-9	12	1	-15	5	-2.1
67	Cc1ccc(Sc2ccc(NC(=O)CCN3C(=O)NC4(CCCC4)C3=O)cc2)c(C)c1	8629	.	12	9	-12	-1	-0.3
68	CCN(CC)C(=O)Cn1nc(-c2ccncc2)nc1SCC(=O)Nc1ccc(OC)cc1	3179	0	4	0	-3	-4	0.0
69	COc1ccccc1CN1CC(C(=O)NCCc2ncccc2C)CCC1=O (stereo not given)	3961	4	14	5	-10	9	4.5
70	COC(=O)c1ccc(Cl)cc1NC(=O)/C=C/c1ccc(C)o1	2554	3	.	.	-21	.	.
71	CCOc1ccc(OCCNC(=O)C(NC(=O)c2c(F)cccc2F)C(C)C)cc1 (stereo not given)	.	.	13	8	-15	4	3.5
72	O=C1CC(N(Cc2cccs2)C(=O)Nc2ccccc2)C(=O)N1c1ccc(Cl)cc1 (stereo not given)	2530	5	-5	6	-6	-8	-0.3
73	Cn1nc(-c2ccccc2)c(C(O)c2ccccc2C(F)(F)F)c1Cl (stereo not given)	15223	0	4	9	-14	5	8.1
74	COc1ccc(C(=O)N2N=C(c3cccc(NS(C)(=O)=O)c3)CC2c2cccs2)cc1 (stereo not given)	4125	4	-9	7	8	7	0.4
75	C/C(=N\NC(=O)c1ccc(Cn2cc(Br)cn2)o1)c1ccc(NC(=O)c2ccoc2C)cc1	?	7	.	.	-19	.	.
76	CCOc1ccc2nc(SCC(=O)c3ccc(Cl)s3)sc2c1	2277	-2	.	.	2	7	-0.9
77	Cc1cc(CNC(=S)Nc2ccc(S(=O)(=O)Nc3ncccn3)cc2)nn1C	6213	-7	10	3	-29	4	0.0
78	COC(=O)c1cc(NC(=O)Cn2c(=O)oc3ccccc32)cc(C(=O)OC)c1	5081	-2	4	1	-17	2	0.7
79	C=CCN1CC(=O)N2Cc3[nH]c4ccccc4c3C[C@H]2C1=O	3635	7	-7	9	-14	-1	4.1
80	O=C(CSC1CN(C(c2ccccc2)c2ccccc2)C1)NN=Cc1ccc(Cl)cc1Cl	.	.	9	10	.	-13	-11
81	CC/C(=N/O)c1cnnc(SC)n1	7489	0	.	.	-7	.	.
82	Cc1c2ccccc2cc(Cc2ccccc2)[n+]1C	3407	-14	2	-1	-11	5	59
83	Cc1ccc(-c2c3c(nc4sc(C(N)=O)c(N)c24)CCC3)cc1	?	0	13	12	10	32	20

Only Autofluor counter, for some of the entries so far:
No.	structure	Autofluor counter
58	CNC(=O)COC(=O)CNC(=O)c1cc(Cl)cc([N+](=O)[O-])c1	3230
59	O=C(CNC(=O)c1ccco1)NCCCc1ccccc1	4741
